Screens: PubChem BioAssay, National Center for Advancing Translational Sciences (NCATS)
VACV mCherry inh – inhibitors of vaccinia virus infection (mCherry reporter signal). AID 720579. hit rate 0.63% among 310,000. Potency, µM (series often up to 36.5 µM), inactives show top-dose activity change, negative = inhibition, most hits filed as inhibitors. Vaccinia virus mCherry reporter infection, fluorescence; about a quarter of the inactives have no number; active = well fitted inhibition curve with a large enough effect; inconclusive = small, poorly fitted or top-dose-only effect; inactive = no such curve, though single readings can be large or run the other way; tested in A549 cells; note: nearly all actives have a fitted effect of over 35% in size; inactives centre near -10
VACV Venus inh – vaccinia inhibition (Venus reporter); Vaccinia virus Venus reporter expression, fluorescence; Potency, µM (titrated, usually from 36.5 µM), without a hit: at the highest dose activity change, negative = inhibition, most hits filed as inhibitors; hit rate 0.46% among 330,000; AID 720580; active means well fitted inhibition curve with a large enough effect; inconclusive means small, poorly fitted or top-dose-only effect; inactive means no such curve, though single readings can be large or run the other way; tested in A549 cells; note: nearly all actives have a fitted effect of over 30% in size; inactives centre near -10
An asterisk follows results filed as active; i = inactive; ? = inconclusive; nt = not tested or not shown; & = joins results of further samples; [ ] = another dose, or the depositor's remark. % is set by controls: 0 for no effect and ±100 for the full control effect; potency is the fitted concentration of half-maximal effect.

SMILES | VACV mCherry inh | VACV Venus inh
COc1ccccc1S(=O)(=O)N(C)C[C@H]1OCc2cnnn2CCCC(=O)N([C@@H](C)CO)C[C@H]1C | i | -7%
COc1cccc(NC(=O)c2oc3ccccc3c2NC(=O)c2cc3ccccc3o2)c1 | -2% | -20%
CC(Nc1cc(N2CCN(S(C)(=O)=O)CC2)ccc1[N+](=O)[O-])c1ccccc1 (configuration not stated) | -26% | ?
CCC(=O)Nc1ccccc1C(=O)C(=O)Nc1ccccc1 | -27% | -4%
Cc1ccc(-n2ncc(C(=O)Nc3ccc4c(c3)OCO4)c2C2CCN(C(=O)OC(C)(C)C)CC2)cc1 | -14% | -12%
Cc1cc(SCC(=O)Nc2ccc(O)cc2)n2ncc(-c3ccccc3)c2n1 | -9%[7.34 µM] | -1%[7.34 µM]
CCOC(=O)[C@]12CCCC=C1N(Cc1cccc3ccccc13)C(=O)[C@H](CC(=O)N1CCSCC1)C2 | -4% | -17%
COc1ccc(-c2noc3c2-c2nc(C(C)C)sc2CC3)cc1 | -29% | -9%
NC(=S)Nc1cccc2[nH]ncc12 | -1% | 0%
CCOc1ccc(N(CC(=O)NC(C)(C)C)C(=O)CCC(=O)Nc2nccs2)cc1 | -17% | -18%
Cc1nnc(NC(=O)c2cccc(S(=O)(=O)N3CCCC3)c2)s1 | -12% | -6%
COc1ccc(OC)c(N(CC(=O)N2CCCCC2)S(=O)(=O)c2ccc(OC)c(OC)c2)c1 | -8% | 6%
Cc1cc(-c2ccnc(-n3ncc(C(=O)NCC(C)(C)N4CCOCC4)c3C)n2)c(C)s1 | 8% | 22%
CCOC(=O)c1cc2c(c(CCO)n1)[C@H](CCO)N(S(=O)(=O)C(C)(C)C)C2 | i | -9%
CC(=O)Nc1ccc(OCC(=O)NCc2ccccc2)cc1 | i | 4%
COc1ccc(OC)c(CN2C(=O)CCC2(C)c2nnnn2Cc2ccccc2)c1 (configuration not stated) | -14% | -5%
[O-]/C(=C(\C(=S)Nc1ccc(SC(F)F)cc1)[n+]1ccccc1)c1cc(Cl)ccc1Cl | -4% | -30%
C=CCN(Cc1nc(-c2ccc(OC)c(OC)c2)oc1C)C1CCS(=O)(=O)C1 (configuration not stated) | i | -4%
O=C(COc1cccc(NC(=O)c2ccccc2)c1)c1ccc(F)cc1 | ? | ?
Cc1ccc(NC(=S)NCCc2ccc(S(N)(=O)=O)cc2)c(C)c1 | -17% | -15%
COc1ccc(-c2ccc(C(=O)Nc3cc(OC)c(OC)c(OC)c3)c3occc23)c(C)c1 | ? | ?
CC(=O)n1cc([C@H]2C=C(C(=O)N3CCOCC3)O[C@@H](OCc3ccc(CO)cc3)C2)c2ccccc21 | i | -27%
N#CC1=C(N)OC2=C(C(=O)CC(c3ccccc3)C2)C1c1ccoc1 (configuration not stated) | -5% | -12%
CCCc1cc(=O)[nH]c(SCC(=O)N2N=C(c3ccc(Cl)cc3)CC2c2ccco2)n1 (configuration not stated) | -19% | -5%
Cc1cc(C)n(C(=O)CCCCCCCC(=O)n2nc(C)cc2C)n1 | -15% | -12%
Cc1ccc(-c2csc(N3CCN(S(=O)(=O)c4ccc5c(c4)NC(=O)CO5)CC3)n2)cc1 | i | -11%
COC(=O)c1ccccc1NC(=O)c1cc(-c2ccco2)on1 | -1% | 5%
Cn1cc(CN2CCCC(CO)C2)c(-c2ccc(Oc3ccccc3)cc2)n1 (configuration not stated) | i | -17%
O=C(NCc1cccc(F)c1)C1CCN(c2nc3ccccc3nc2C(F)(F)F)CC1 | 2% | 9%
CC(C)=CCc1cc([C@@H]2COc3c(ccc4c3C=CC(C)(C)O4)C2)c(O)cc1O | ? | ?
Cn1c(SCC(=O)Nc2nccs2)nnc1-c1ccccn1 | i | -2%
Cc1cc(C(=O)CSc2n[nH]c(N)n2)c(C)n1-c1ccc2c(c1)OCO2 | -22% | -7%
O=C1NC2=C(C(=O)CCC2)C(c2ccc([N+](=O)[O-])cc2)N1 (configuration not stated) | -21% | 8%
C[C@H]1CCC[C@]2(CC(=O)c3cc(F)ccc3O2)C1 | -27% | -13%
CC[C@@]1(C(=O)OC)N[C@H](CN(C)C(=O)Nc2ccc(F)cc2)[C@@H]2C(=O)N(C)C(=O)[C@@H]21 | i | 0%
CC(C)CC(=O)Nc1nc(=S)ss1 | nt | -3%
CC(=O)NCCNC(=O)C1(C)Cc2c(-c3ccccc3)ccnc2O1 (configuration not stated) | -8% | 8%
CCC(=O)c1ccc(OCC(=O)OCC(=O)N2c3ccccc3CC2C)cc1 (configuration not stated) | -2% | -10%
N#Cc1nc(/C=C/c2ccccc2)oc1NCCCN1CCOCC1 | -25% | -13%
CN1C2CCC1CC(OC(=O)c1cc(Cl)cc(Cl)c1)C2 (configuration not stated) | nt | -14%
CC(=O)N1CN(C2CCS(=O)(=O)C2)Cc2c1sc1c2CCCC1 (configuration not stated) | nt | 0%
CCN(CCO)c1ccc(N=Nc2cc(C)[nH]n2)cc1 | -2% | -27%
O=C(O)/C=C/C(=O)Nc1ccc(OCc2ccccc2)cc1 | -23% | -6%
COc1ccc(NC(=O)c2ncoc2-c2ccco2)cc1Cl | -23% | -28%
Cc1ccc(NS(=O)(=O)c2cc(C(=O)NCCSc3ccc(C)cc3)ccc2C)cc1 | ? | ?
NC(=O)C1(N2CCCC2)CCN(Cc2ccccc2)CC1 | -29% | -24%
O=C(Nc1nc(=O)c2ccccc2s1)c1ccccc1 | -10% | -26%
CCOC(=O)C1=NN(C(C)=O)C2(CC(=O)N(c3cc(C)cc(C)c3)C2=O)C1 (configuration not stated) | -8% | -4%
CC(C)COP(=O)(OCC(C)C)C(O)c1ccccc1F (configuration not stated) | nt | -22%
COc1ccc2[nH]cc(CCN=C(NC(=O)c3ccccc3OC)Nc3nc(C)cc(C)n3)c2c1 | ? | -25%
C=CCn1cc(/C=C2/NC(=O)NC2=O)c2ccccc21 | -2% | -11%
COC(=O)c1cc2oc3ccccc3c2n1CC(=O)Nc1ccccc1OC | nt | -28%
O=C(/C=C/c1ccc2c(c1)OCO2)N1CCOCC1 | 5% | 8%
Cc1cnc(=O)[nH]c1SCC(=O)Nc1nccs1 | -8% | 4%
c1csc(CNc2ncnc3nc[nH]c23)c1 | -26%&-22%&-4% | -14%&-15%&-20%
O=[N+]([O-])c1nn(-c2ccccc2)n(O)c1=NCc1ccc2c(c1)OCO2 | -13% | -12%
O=C(c1ccc2nccnc2c1)N1CCN(Cc2ccc3c(c2)OCO3)CC1 | -20% | -11%
CC(=O)Nc1ccc(NC(=O)C(C)OC(=O)CCCOc2ccc(Cl)c(C)c2)cc1 (configuration not stated) | -15% | -7%
COc1ccccc1N(CC(=O)NC(C)(C)C)C(=O)c1ccc(Cl)nc1 | -5% | -15%
COCCCn1c(C(=O)NCCC2=CCCCC2)cc2c(=O)n3ccccc3nc21 | -20% | -10%

Later entries
SMILES | VACV mCherry inh | VACV Venus inh
Cc1cc(NC(=O)c2cnn3c(C(F)(F)F)cc(-c4ccccc4)nc23)no1 | -10% | -4%
O=C(O)C1CCCCC1C(=O)NCCc1ccc(F)cc1 (configuration not stated) | 0% | -4%
O=S1(=O)C[C@@H](O)[C@@H](Nc2ccccc2)C1 | -19% | -11%
CC(OC(=O)c1ccccc1NS(=O)(=O)c1cccc(N)c1)C(=O)N(C)Cc1ccccc1 (configuration not stated) | -7% | -15%
CC(C)N(C(=O)Cn1cc(SCC(=O)NCc2ccco2)c2ccccc21)C(C)C | i | 0%
COc1ccc(NC(=O)Nc2ccccc2F)c([N+](=O)[O-])c1 | -25% | -14%
O=C(c1ccc(Br)o1)N1CCN(c2ccc(F)cc2)CC1 | -5% | -15%
CC1CCN(Cc2nnnn2-c2ccc(Cl)cc2)CC1 | -1% | -18%
CCc1nnc(NC(=O)c2cccc(S(=O)(=O)N3CCCC3)c2)s1 | i | -9%
CCCn1c(=O)c2sccc2n2c(CCCC(=O)NCCOC)nnc12 | -15% | -18%
O=C(Nc1ccc(N2CCN(C(=O)c3ccco3)CC2)cc1)c1ccccc1 | -7% | 7%
COc1cccc2c1Oc1ncccc1N(c1ccc(C(=O)NCc3ccccc3C)s1)C2 | 3% | -9%
O=C(N/N=C1\CCCCc2ccccc21)c1ccccn1 | -7% | -7%
COc1ccc(-c2nc3cc(NC(=O)c4ccc(C)cc4)ccc3o2)cc1Cl | -10% | -8%
O=S(=O)(c1ccccc1)N1CCN(Cc2cccc(Br)c2)CC1 | i | -9%
Cc1ccc(-n2c(C)cc(C=C3C(=O)CC(C)(C)CC3=O)c2C)cc1 | -13% | -4%
CC12Cc3cnoc3C=C1CCC1C2CCC2(C)C1CCC2(C)O (configuration not stated) | ? | -27%
COc1ccc(N=CC2=C(O)CC(c3ccccc3)CC2=O)c(OC)c1 (configuration not stated) | ? | -18%
O=c1[nH]c(=S)n(C2CC2)c(O)c1/C=N/Nc1ccccc1 | -7% | 1%
Cc1ccc(S(=O)(=O)N2C[C@H]3C(=O)C[C@@H](c4cccs4)N(S(=O)(=O)c4ccc(C)cc4)[C@H]3C[C@H]2c2ccccc2)cc1 | 20% | -9%
COc1ccc(CNC(=O)CCCN2C(=O)CSc3c2c(C)nn3-c2ccccc2)c(OC)c1 | -10% | -20%
Cc1cccc(NC(=O)c2cc3c(=O)n(Cc4ccco4)ccc3nc2C)c1 | -6% | -8%
Cc1cc(C)n(CCNCc2c(C(=O)N3C[C@@H](C)O[C@@H](C)C3)nc3ccc(Cl)cn23)n1 | -22% | -4%
Cc1ccc(S(=O)(=O)N2CCC(C(=O)OC(C)C(=O)N3CCOCC3)CC2)cc1 (configuration not stated) | -17% | -7%
COc1ccc(NC(=O)C(c2ccnc3ccccc23)n2c(=O)c(-c3ccco3)nc3ccccc32)cc1 (configuration not stated) | -15% | 3%
N#Cc1cccc(S(=O)(=O)NCC(=O)OCC(=O)c2ccc[nH]2)c1 | i | 2%
CCOC(=O)c1cccc(NC(=O)CCn2c(-c3ccc(F)cc3)cc(C(=O)OCC)c2C)c1 | -12% | -10%
Cc1ccc(C(C)(C)C)cc1S(=O)(=O)N1CCC(C(=O)N2CCN(c3ccc(O)cc3)CC2)CC1 | -9% | -15%
CC(C)=C1SC(N2CCN(c3ccc(Cl)cc3)CC2)=NC1=O | -23% | -15%
S=C(Nc1ccc2nccnc2c1)N1CCCC1 | 5% | 1%
O=C(CSc1nnc(-c2c[nH]c3ccccc23)o1)NCC1CCCO1 (configuration not stated) | i | -6%
C/C(=C/c1ccccc1)C(=O)N1CCN(c2ccccc2F)CC1 | -16% | -1%
CCOC(=O)N1CCN(CC(O)COCc2ccc(Cl)cc2)CC1 (configuration not stated) | nt | -6%
CCc1cccc(NC(=O)Cn2c3[n+](c4ccc(C(F)(F)F)cc42)CCCCC3)c1 | i | -5%
COc1ccc(CC(NC(C)=O)C(=O)NC2CCN(C(=O)c3ccncc3)CC2)cc1OC (configuration not stated) | i | -8%
COc1ccc(C(=O)c2c(-c3ccc(OC)cc3)oc3ccccc23)cc1 | -26% | -12%
Cc1cccc(C)c1NC(=O)CSc1nc(-c2ccccc2)nc2c1Cc1c(CO)cnc(C)c1O2 | -6% | 1%
S=C(NCCN1CCCCC1)Nc1ccccc1 | -4% | -8%
Cc1occc1-c1nnc(SCC(=O)NC(C)(C)C)n1C(C)c1ccccc1 (configuration not stated) | -15% | -3%
CN(C1CCCCC1)S(=O)(=O)c1cc2c3c(c1)CCN3C(=O)CC2 | -19% | -14%
CCc1ccc(CNC(=O)c2cc3c(=O)oc4ccc(C)cc4c3s2)cc1 | -4% | -2%
CCN1C(=O)N[C@@H](c2cccc(C(F)(F)F)c2)C(C(C)=O)=C1C | i | -9%
CCN(CC)CCNC(=O)c1ccc(N)cc1 | -15% | -7%
COc1ccc(S(=O)(=O)CCC(=O)NCCc2ccc(S(N)(=O)=O)cc2)cc1 | nt | -6%
Cc1ccccc1-c1cnc(C(O)c2c(C)ccc3ccccc23)[nH]1 (configuration not stated) | 22% | -8%
COc1ccc(Cl)cc1Nc1nc(-c2cccnc2)cs1 | ? | -9%
COc1ccc(NC(=O)c2ccccc2F)cc1Cl | -1% | -21%
CCOC(=O)C1CCN(CC(O)COc2ccc(S(=O)(=O)N3CCCC3)cc2[N+](=O)[O-])CC1 (configuration not stated) | -2% | -11%

Quoted at random: four entries already listed.
SMILES | VACV mCherry inh | VACV Venus inh
C/C(=C/c1ccccc1)C(=O)N1CCN(c2ccccc2F)CC1 | -16% | -1%
COc1ccc(CC(NC(C)=O)C(=O)NC2CCN(C(=O)c3ccncc3)CC2)cc1OC (configuration not stated) | i | -8%
Cc1cccc(C)c1NC(=O)CSc1nc(-c2ccccc2)nc2c1Cc1c(CO)cnc(C)c1O2 | -6% | 1%
CCOC(=O)C1CCN(CC(O)COc2ccc(S(=O)(=O)N3CCCC3)cc2[N+](=O)[O-])CC1 (configuration not stated) | -2% | -11%

A second format for part of the listing above:
The line under a structure holds: VACV mCherry inh	VACV Venus inh
> O=C(CSc1nnc(-c2c[nH]c3ccccc23)o1)NCC1CCCO1 (configuration not stated)
    i	-6%
> CCOC(=O)C1CCN(CC(O)COc2ccc(S(=O)(=O)N3CCCC3)cc2[N+](=O)[O-])CC1 (configuration not stated)
    -2%	-11%
> COc1ccc(C(=O)c2c(-c3ccc(OC)cc3)oc3ccccc23)cc1
    -26%	-12%

In a second layout: results already given.
mol	VACV mCherry inh	VACV Venus inh
O=C(CSc1nnc(-c2c[nH]c3ccccc23)o1)NCC1CCCO1 (configuration not stated)	i	-6%
COc1ccc(NC(=O)c2ccccc2F)cc1Cl	-1%	-21%
COc1ccc(C(=O)c2c(-c3ccc(OC)cc3)oc3ccccc23)cc1	-26%	-12%
